FGF22 binding = FGF22 (human) thermal shift binding. Q9HCT0. recombinant FGF22 thermal shift, SYPRO orange fluorescence; percent of sucrose octasulfate shift, DMSO zero. calls only at 9.99 µM. actives 1.5% (n = 340,000);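 active means melting point raised past a set limit in the mean and every replicate; three in four hits are not shown here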
Target sequence (Q9HCT0 whole entry, looked up): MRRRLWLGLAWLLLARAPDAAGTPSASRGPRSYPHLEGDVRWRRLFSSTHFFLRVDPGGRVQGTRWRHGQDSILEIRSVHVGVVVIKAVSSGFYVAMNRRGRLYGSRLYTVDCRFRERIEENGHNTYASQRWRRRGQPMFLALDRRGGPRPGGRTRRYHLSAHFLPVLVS
rRNA inh HTS = inhibits bacterial ribosomal RNA function over humanized ribosomes | AID 720706 | GFP signal change (wild-type ribosome), % (test concentration not listed) | E. coli WT GFP vs humanized-ribosome RFP mutants, fluorescence, 24 h; hits give low values; DMSO median 0, no signal -100 | actives 1.6% (n = 350,000);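 active means significant combined selectivity score with lowered wild-type GFP, culture density cut under 30%, mutant RFP and density less affected; inactive means any of these conditions unmet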; further: one replicate is shown; some compounds called inactive have numbers as strong as hits
rRNA inh HTS OD600 = recorded beside rRNA inh HTS, whose call it bears; OD600 change, %; measured here: OD600 growth;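 optical density of the mix in the first replicate; 0 = DMSO median and -100 = no signal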
rRNA inh HTS RFP = further read-out of rRNA inh HTS, marked with its call; RFP signal change, %; measured here: RFP humanized mutant strains;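 first replicate; 0 = DMSO median and -100 = no signal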
* = called active by the depositor; i = inactive. This is a subset (hit frequency here may not be typical).

(1) Cc1ccc(S(=O)(=O)Nc2ccc3c(c2)C(=O)N([C@@H](C)CO)C[C@H](C)[C@H](CN(C)S(C)(=O)=O)OCCCC[C@@H](C)O3)cc1
(2) C[C@@H]1CN([C@@H](C)CO)C(=O)c2cccc(NC(=O)CCCCCC(=O)Nc3ccccc3N)c2O[C@@H]1CN(C)Cc1ccc(Oc2ccccc2)cc1
(3) O=C(C[C@@H]1C[C@@H]2c3cc(NC(=O)Nc4ccc(F)cc4)ccc3O[C@@H]2[C@@H](CO)O1)NC1CCCC1
(4) O=C(Nc1ccc(F)cc1)N[C@@H]1CC[C@H](CC(=O)N2CCOCC2)O[C@H]1CO
(5) O=C(C[C@H]1C=C[C@@H](NS(=O)(=O)c2ccc(F)cc2)[C@H](CO)O1)NCc1ccncn1
(6) O=C(C[C@H]1C=C[C@@H](NC(=O)Nc2cc(F)ccc2F)[C@@H](CO)O1)Nc1ccc(-c2ccccc2)cc1
(7) C[C@H]1CN([C@@H](C)CO)C(=O)c2cc(C3=CCCCC3)cnc2O[C@H]1CN(C)C(=O)Cc1ccccc1
(8) O=C(N[C@H]1CC[C@H](CCn2cc(C3CC3)nn2)O[C@@H]1CO)c1cccnc1
screen / no.,1,2,3,4,5,6,7,8
rRNA inh HTS,2,-3,1,-2,4,-46,0,-1
rRNA inh HTS RFP,1.5,3.4,-0.4,-1.6,2.2,-12,0.2,-0.1
rRNA inh HTS OD600,12,-6,27,2,1,-47,4,-8
FGF22 binding,i,i,i,i,i,i,i,i

(9) O=C(c1cccc(F)c1)N1CCCCN2[C@H](CO)[C@@H](c3ccc(C#CC4(O)CCCC4)cc3)[C@H]2C1
(10) COC(=O)C1=C(C)N(Cc2cccc(C(F)(F)F)c2)C(=NCC2CC2)NC1c1ccccc1 (stereo not drawn)
(11) O=C(Nc1cc(F)ccc1F)N[C@H]1CC[C@@H](CCn2cc(C3CC3)nn2)O[C@@H]1CO
(12) O=C(NC1CCCCC1)N[C@@H]1CC[C@@H](CCNS(=O)(=O)c2ccc(Cl)cc2)O[C@H]1CO
(13) C[C@@H]1CN([C@@H](C)CO)C(=O)Cc2cc(NC(=O)Nc3cccc4ccccc34)ccc2O[C@H]1CN(C)S(=O)(=O)c1ccc(F)cc1
(14) O=C(Nc1ccccc1F)N1CCCCN2[C@@H](CO)[C@@H](c3ccc(-c4cccnc4)cc3)[C@@H]2C1
(15) COc1ccc(-c2ccc3c(c2)O[C@H](CN(C)C(=O)c2ccccc2F)[C@H](C)CN([C@H](C)CO)S3(=O)=O)cc1
(16) C[C@@H]1CN([C@@H](C)CO)C(=O)c2cccc(NS(C)(=O)=O)c2O[C@H]1CN(C)C(=O)Nc1ccccc1
screen / no.,9,10,11,12,13,14,15,16
rRNA inh HTS,-2,-57,0,-3,-1,1,-9,-1
rRNA inh HTS RFP,-1.2,-20,-1.2,2.8,0.7,-0.6,4.5,-1.9
rRNA inh HTS OD600,0,-83,-7,-5,3,9,-10,9
FGF22 binding,i,i,i,i,i,i,i,i

The closing three compounds of the part before lead into the next:
(14) O=C(Nc1ccccc1F)N1CCCCN2[C@@H](CO)[C@@H](c3ccc(-c4cccnc4)cc3)[C@@H]2C1
(15) COc1ccc(-c2ccc3c(c2)O[C@H](CN(C)C(=O)c2ccccc2F)[C@H](C)CN([C@H](C)CO)S3(=O)=O)cc1
(16) C[C@@H]1CN([C@@H](C)CO)C(=O)c2cccc(NS(C)(=O)=O)c2O[C@H]1CN(C)C(=O)Nc1ccccc1
(17) CNC[C@H]1OCCCC[C@@H](C)Oc2ccc(NC(=O)c3ccncc3)cc2C(=O)N([C@@H](C)CO)C[C@H]1C
(18) C[C@H](CO)N1C[C@H](C)[C@H](CN(C)Cc2ccc(F)cc2)Oc2ncc(-c3cncnc3)cc2C1=O
(19) C[C@H](CO)N1C[C@H](C)[C@H](CN(C)C(=O)CN(C)C)Oc2cc(C#Cc3ccc(F)cc3)ccc2S1(=O)=O
(20) C[C@H]1CN([C@@H](C)CO)C(=O)c2cc(-c3ccc(C#N)cc3)cnc2O[C@H]1CN(C)CC1CCOCC1
(21) CN(C)C(=O)C[C@H]1C=C[C@H](NC(=O)c2ccc(F)cc2)[C@H](CO)O1
(22) O=C(Nc1cccc(F)c1)N1CC(=O)N2[C@H](CO)[C@H](c3ccc(Br)cc3)[C@H]2C1
(23) Cc1noc(C)c1NC(=O)N(C)C[C@H]1Oc2ccc(NS(=O)(=O)c3cn(C)cn3)cc2CC(=O)N([C@H](C)CO)C[C@@H]1C
(24) CN(C)C(=O)[C@@H]1[C@@H](CO)[C@@H]2Cn3c(ccc(-c4ccncc4)c3=O)[C@H]1N2CC1CCCC1
screen / no.,14,15,16,17,18,19,20,21,22,23,24
rRNA inh HTS,1,-9,-1,3,-1,4,3,1,-7,3,2
rRNA inh HTS RFP,-0.6,4.5,-1.9,-3.3,-1.7,3.8,-1.8,0.1,1.7,-1.0,-5.7
rRNA inh HTS OD600,9,-10,9,10,-2,0,-1,4,-3,5,9
FGF22 binding,i,i,i,i,i,i,i,i,i,i,i

(25) O=C(C[C@@H]1CC[C@@H]2[C@H](COC[C@@H](O)CN2C(=O)c2cccnc2)O1)NCc1ccccc1
(26) Cc1noc(C)c1NC(=O)Nc1ccc2c(c1)C(=O)N([C@H](C)CO)C[C@@H](C)[C@H](CN(C)C(=O)Nc1c(C)noc1C)OCCCC[C@@H](C)O2
(27) C[C@@H]1CN([C@@H](C)CO)C(=O)Cc2cc(NC(=O)c3ccncc3)ccc2O[C@@H]1CN(C)CC1CCCCC1
(28) C[C@@H]1CN([C@@H](C)CO)C(=O)c2cccc(NS(=O)(=O)c3cccs3)c2O[C@H]1CN(C)C(=O)Nc1ccc(F)cc1
(29) CC(C)NC(=O)Nc1ccc2c(c1)CC(=O)N([C@@H](C)CO)C[C@@H](C)[C@@H](CN(C)Cc1ccncc1)O2
(30) C[C@H]1CN([C@@H](C)CO)C(=O)c2cc(C#CCC3CCCC3)cnc2O[C@H]1CN(C)C(=O)CN(C)C
(31) CN(C)C(=O)C[C@H]1CC[C@@H]2[C@H](COc3ccc(NS(=O)(=O)c4cccc(F)c4)cc3C(=O)N2C)O1
(32) C[C@H](CO)N1C[C@H](C)[C@H](CN(C)C)Oc2c(NC(=O)Nc3ccc(F)cc3)cccc2C1=O
screen / no.,25,26,27,28,29,30,31,32
rRNA inh HTS,0,2,1,-3,-2,8,-1,4
rRNA inh HTS RFP,8.9,-2.4,-3.8,-0.7,-1.5,-2.0,-4.4,-2.9
rRNA inh HTS OD600,7,5,0,-3,3,7,2,4
FGF22 binding,i,i,i,i,i,i,i,i

(33) CC(C)NC(=O)N(C)C[C@@H]1OCCCC[C@@H](C)Oc2ccc(NS(=O)(=O)c3ccc(Cl)cc3)cc2C(=O)N([C@@H](C)CO)C[C@H]1C
(34) Cc1noc(C)c1NC(=O)Nc1ccc2c(c1)C(=O)N([C@H](C)CO)C[C@@H](C)[C@@H](CN(C)Cc1ccncc1)OCCCC[C@H](C)O2
(35) Cc1ccccc1-c1ccc([C@@H]2[C@@H](CO)N3CCCCN(C(=O)Nc4cccc(F)c4)C[C@H]23)cc1
(36) C[C@@H]1CN([C@@H](C)CO)C(=O)c2cc(C3=CCCC3)cnc2O[C@@H]1CN(C)C(=O)c1cccnc1
(37) C[C@@H]1CN([C@@H](C)CO)S(=O)(=O)c2ccc(-c3cccc(F)c3)cc2O[C@@H]1CN(C)S(=O)(=O)c1ccc(F)cc1
(38) CN(C)CC(=O)N[C@@H]1CC[C@H](CCNC(=O)C2CCCCC2)O[C@@H]1CO
(39) C[C@@H]1CN([C@H](C)CO)C(=O)c2cc(NC(=O)CCCN(C)C)ccc2O[C@@H](C)CCCCO[C@H]1CN(C)S(=O)(=O)c1cn(C)cn1
(40) C[C@H](CO)N1C[C@H](C)[C@H](CN(C)Cc2ccc(Oc3ccccc3)cc2)Oc2c(NC(=O)Nc3ccccc3)cccc2C1=O
screen / no.,33,34,35,36,37,38,39,40
rRNA inh HTS,-4,1,-58,2,2,1,4,11
rRNA inh HTS RFP,-2.4,-1.1,-11,-2.1,-1.6,-1.9,-1.5,0.3
rRNA inh HTS OD600,-6,11,-77,12,12,-1,8,-9
FGF22 binding,i,i,i,i,i,i,i,i

(41) O=C(C[C@@H]1C=C[C@@H](NC(=O)CCN2CCCCC2)[C@H](CO)O1)NCc1ccc(Cl)c(Cl)c1
(42) CCCNC(=O)[C@@H]1[C@@H](CO)[C@@H]2Cn3c(ccc(C4=CCCC4)c3=O)[C@@H]2N1CCC(F)(F)F
(43) COc1ccc(NC(=O)N(C)C[C@@H]2Oc3c(NC(=O)c4nc5ccccc5s4)cccc3C(=O)N([C@H](C)CO)C[C@H]2C)cc1
(44) O=C(C[C@H]1C[C@H]2c3cc(NC(=O)Nc4ccc(C(F)(F)F)cc4)ccc3O[C@H]2[C@H](CO)O1)NCc1ccc2c(c1)OCO2
(45) C[C@H]1CN([C@@H](C)CO)C(=O)c2cc(NS(=O)(=O)c3cn(C)cn3)ccc2O[C@@H]1CN(C)Cc1ccc(Oc2ccccc2)cc1
(46) COc1ccc(NC(=O)N(C)C[C@H]2OCCCC[C@H](C)Oc3ccc(NC(=O)C4CCCCC4)cc3C(=O)N([C@H](C)CO)C[C@@H]2C)cc1
(47) COCC(=O)Nc1ccc2c(c1)C(=O)N(C)[C@@H]1CC[C@@H](CC(=O)O)O[C@H]1CO2
(48) CC(C)NC(=O)N(C)C[C@@H]1Oc2cc(C#Cc3cccc(F)c3)ccc2S(=O)(=O)N([C@@H](C)CO)C[C@@H]1C
screen / no.,41,42,43,44,45,46,47,48
rRNA inh HTS,-1,-2,-3,6,1,-1,2,0
rRNA inh HTS RFP,1.5,-2.2,0.2,3.8,0.7,4.0,-0.6,19
rRNA inh HTS OD600,-3,-5,-1,10,-7,0,6,-20
FGF22 binding,i,i,i,i,i,i,i,i

(49) C[C@@H]1CN([C@H](C)CO)C(=O)c2cc(NS(C)(=O)=O)ccc2O[C@@H](C)CCCCO[C@H]1CN(C)C(=O)NC1CCCCC1
(50) Cc1ccc(S(=O)(=O)N[C@@H]2CC[C@H](CCNC(=O)C3CCCC3)O[C@@H]2CO)cc1
(51) COc1ccccc1C(=O)Nc1ccc2c(c1)C(=O)N(C)[C@H]1CC[C@H](CC(=O)NCc3ccc(Cl)c(Cl)c3)O[C@@H]1CO2
(52) Cc1ccc(S(=O)(=O)Nc2ccc3c(c2)CC(=O)N([C@H](C)CO)C[C@@H](C)[C@H](CN(C)C(=O)Nc2cccc4ccccc24)O3)cc1
(53) N#C[C@H]1N[C@H](CO)[C@H]1c1ccccc1
(54) C[C@H](CO)N1C[C@H](C)[C@@H](CN(C)Cc2cncnc2)Oc2ncc(C#C[C@@H](C)O)cc2C1=O
(55) CC(C)NC(=O)N1CCCCN2[C@@H](CO)[C@H](c3ccc(C#Cc4ccccc4)cc3)[C@@H]2C1
(56) CO[C@H]1CN(C)C(=O)c2ccc(NC(=O)c3ccccc3F)cc2OC[C@H](C)N(CC2CCOCC2)C[C@H]1C
screen / no.,49,50,51,52,53,54,55,56
rRNA inh HTS,5,0,-7,0,3,4,-58,1
rRNA inh HTS RFP,-4.1,-5.8,0.3,-0.1,-2.9,-7.8,-14,0.5
rRNA inh HTS OD600,-6,1,-8,0,11,16,-76,-1
FGF22 binding,i,i,i,i,i,i,i,i

(57) O=C(C[C@H]1CC[C@H]2[C@@H](COC[C@H](O)CN2C(=O)C2CCCC2)O1)NCc1ccncc1
(58) COc1ccc2c3c(n(C)c2c1)[C@H](CO)N(Cc1ccc(Cl)cc1)CC31CCN(C(=O)NC(C)C)CC1
(59) CN(C)c1ccc2c(c1)[C@@H]1C[C@H](CC(=O)NCc3cccc(F)c3)O[C@H](CO)[C@@H]1O2
(60) CO[C@H]1CN(C)C(=O)c2ccc(NC(=O)C3CC3)cc2OC[C@@H](C)N(CC2CCOCC2)C[C@H]1C
(61) C[C@@H]1CN([C@H](C)CO)C(=O)Cc2cc(NC(=O)Cc3ccccc3)ccc2O[C@H]1CN(C)S(=O)(=O)c1ccc(F)cc1
(62) C[C@@H]1CN([C@@H](C)CO)C(=O)Cc2cc(NC(=O)CCN3CCOCC3)ccc2O[C@@H]1CN(C)CC1CC1
(63) O=C(C[C@H]1CC[C@@H]2[C@H](COC[C@@H](O)CN2C(=O)c2cnccn2)O1)N1CCN(c2ccccc2)CC1
screen / no.,57,58,59,60,61,62,63
rRNA inh HTS,3,8,1,3,-3,-1,2
rRNA inh HTS RFP,26,2.8,-1.2,1.0,-0.2,-2.1,-2.0
rRNA inh HTS OD600,8,-5,-2,5,-2,1,-7
FGF22 binding,i,i,i,i,i,i,i

Compound profiles (already shown). Order of values: rRNA inh HTS | rRNA inh HTS RFP | rRNA inh HTS OD600 | FGF22 binding
`O=C(C[C@H]1CC[C@H]2[C@@H](COC[C@H](O)CN2C(=O)C2CCCC2)O1)NCc1ccncc1` is listed with 3 | 26 | 8 | i
`C[C@@H]1CN([C@@H](C)CO)C(=O)Cc2cc(NC(=O)CCN3CCOCC3)ccc2O[C@@H]1CN(C)CC1CC1` is listed with -1 | -2.1 | 1 | i
